Source: PubChem BioAssay
ClpP mod = qHTS Assay for Activators of ClpP. purified B. subtilis ClpP, FRET peptide cleavage, 20 min. Potency, µM (highest dose often 57.5 µM), for inactives: top-dose activity change, negative = active. 340,000 tested, 1.9% active. AID 651965, 2013; active = well fitted falling curve with a large enough effect; inconclusive = small, poorly fitted or top-dose-only effect; inactive = no such curve, though single readings can be large or run the other way; also: potency is read from the fitted curve at half-maximal effect; the source files actives as falling curves though it sought activators and does not explain the sign; nearly all actives have a fitted effect of over 65% in size; many hits overshoot -100%
Target sequence (P80244 whole entry, looked up): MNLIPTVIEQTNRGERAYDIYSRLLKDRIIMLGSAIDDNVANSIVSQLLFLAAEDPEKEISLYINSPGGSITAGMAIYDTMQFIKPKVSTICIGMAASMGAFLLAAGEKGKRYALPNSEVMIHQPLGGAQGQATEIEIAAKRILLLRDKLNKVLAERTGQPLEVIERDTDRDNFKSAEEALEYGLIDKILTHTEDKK
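FRET quenching reversal measured ClpP activation: 10 microg/mL B. subtilis ClpP at pH 8 with the FRET-FV decapeptide, read at 430 nm after 320 nm excitation. The 20-min minus 0-min signal was scaled between DMSO/no-enzyme wells and ADEP (5.8 microM final).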
Sfp inh = inhibitors of Bacillus subtilis Sfp phosphopantetheinyl transferase. Q9F4F7. Biochemical Sfp PPTase activity, qHTS. Potency, µM, for the others: max response, negative = inhibition, usual class: inhibitors. 310,000 tested, 3.5% active; active = well fitted inhibition curve with a large enough effect; inconclusive = small, poorly fitted or top-dose-only effect, or another doubt; inactive = no such curve, though single readings can be large or run the other way;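 also: the enzyme is Sfp with the accession as filed and its product quenches rhodamine fluorescence; potency is read from the fitted curve at half-maximal effect; 0% = enzyme reaction without inhibitor and -100% = no enzyme wells; top concentration of the series not given in the record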
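Step 1, compound plus 15 nM Sfp-PPTase, 15 min, room temperature. Step 2, add rhodamine-CoA (5 uM) and BHQ-2-YbbR (12.5 uM). Step 3, read 525/598 nm fluorescence at 0 and 30 min.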
gsp ag = gsp mutant agonism. 340,000 tested, 0.13% active. gsp mutant cells, cAMP HTRF, 30 min; control for the full effect not named in the record. Potency, µM (top dose mostly 76.9 µM), without a hit: top-dose activation (cAMP increase), actives largely listed as activators. AID 624287; active = well fitted activation curve with a large enough effect; inconclusive = small, poorly fitted or top-dose-only effect, or another doubt; inactive = no such curve, though single readings can be large or run the other way; cell line not stated here;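 also: phosphodiesterase inhibitor Ro 20-1724 added with compounds to block cAMP breakdown; potency is read from the fitted curve at half-maximal effect; nearly all actives have a fitted effect of over 60% in size; about a fifth of the inactives were tested at one dose only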
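Cells in DMEM/10% FBS with G418 were pretreated with compounds in DMSO plus […] (300 uM stock) for 30 min at 37C. cAMP was measured by HTRF (cAMP-d2 plus anti-cAMP antibody-K) after 30 min at room temperature.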
CtBP-E1A blk = blocks the CtBP interaction with E1A | AlphaScreen GST-E1A/His-CtBP binding, 1536-well; hits give low values; control for the full effect not named in the record | activity change, % (no concentration beside the values) | 340,000 tested, 0.49% active | AID 651724; in the data active means activity change below about -65%; inconclusive means about -30% to -65%; inactive means above about -30%; also: % is scaled to controls: 0 for no effect and ±100 for the full control effect; compound concentration not given in the record
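Steps: dispense buffer (Tris pH 8.0, NaCl 300 mM, TCEP 1 mM, BSA, Tween 20); add 5X protein mix (GST-E1A, His-CtBP, 125 nM each); pin 23 nL compound; 2 h at 37 °C, dark; add 5X beads (50 ug/mL); 1 h; read.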
TRPV1 PAM = potentiators of human vanilloid receptor 1 (TRPV1) | TRPV1-expressing cells, Fluo-8 calcium influx, capsaicin EC20 potentiation; host cell line not named in the record; control for the full effect not named in the record | Q8NER1 | 320,000 tested, 0.02% active | potentiation, % at 8.33 µM; active means potentiation above 80%; inconclusive means 30% to 80%; inactive means below 30%; also: 0% is about no effect
Target sequence (Q8NER1 whole entry, looked up): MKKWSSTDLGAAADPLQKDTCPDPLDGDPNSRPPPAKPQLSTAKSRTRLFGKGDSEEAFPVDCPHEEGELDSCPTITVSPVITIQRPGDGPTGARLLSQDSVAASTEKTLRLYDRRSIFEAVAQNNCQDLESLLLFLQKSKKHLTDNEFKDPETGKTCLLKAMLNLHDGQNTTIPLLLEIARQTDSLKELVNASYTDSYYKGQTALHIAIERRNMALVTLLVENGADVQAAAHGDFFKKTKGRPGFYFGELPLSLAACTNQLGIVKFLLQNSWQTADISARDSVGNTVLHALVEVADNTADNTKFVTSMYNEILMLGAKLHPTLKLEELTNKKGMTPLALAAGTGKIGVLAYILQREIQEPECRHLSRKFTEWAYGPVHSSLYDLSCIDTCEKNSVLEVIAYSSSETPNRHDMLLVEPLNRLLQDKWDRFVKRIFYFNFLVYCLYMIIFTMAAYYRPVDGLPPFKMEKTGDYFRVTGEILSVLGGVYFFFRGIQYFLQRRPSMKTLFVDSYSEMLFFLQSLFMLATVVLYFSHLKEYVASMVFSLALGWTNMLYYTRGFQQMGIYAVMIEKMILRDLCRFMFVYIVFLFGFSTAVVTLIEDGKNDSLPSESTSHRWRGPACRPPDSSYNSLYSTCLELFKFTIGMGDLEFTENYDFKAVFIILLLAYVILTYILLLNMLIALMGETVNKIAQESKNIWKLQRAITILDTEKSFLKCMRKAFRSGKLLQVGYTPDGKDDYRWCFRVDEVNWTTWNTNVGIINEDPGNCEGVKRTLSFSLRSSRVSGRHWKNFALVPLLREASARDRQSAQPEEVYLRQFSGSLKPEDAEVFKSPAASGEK
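TRPV1-expressing cells were cultured overnight at 35.5C and loaded with Fluo-8 calcium dye for 40 to 90 min at room temperature. After a 10 s baseline, compound was added and calcium influx was read kinetically for 3 min (ex 480/em 520 nm).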
gsp antag = antagonizes gsp, the McCune-Albright syndrome mutation; gsp-mutant cells, cAMP HTRF, 30 min; control for the full effect not named in the record; Potency, µM (series often up to 76.9 µM), without a hit: top-dose activity change, negative = inhibition, usual class: inhibitors; 340,000 tested, 0.4% active; active = falling curve of any shape with a large fitted effect; inconclusive = falling curve, mostly with a smaller effect; inactive = flat or rising curve; cell line not stated here;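 also: intracellular cAMP measured with PDE inhibitor Ro 20-1724 present during compound exposure; potency is read from the fitted curve at half-maximal effect; % is scaled to controls: 0 for no effect and ±100 for the full control effect; nearly all actives have a fitted effect of over 65% in size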
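Measurement of cellular cAMP by homogeneous time-resolved fluorescence following a 30 min compound exposure at 37C. The PDE inhibitor […] was present throughout; the assay buffer was DPBS with 0.05% BSA and 0.005% Tween 20.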
Menin MLL FP FL = menin-MLL binding inhibition, fluorescein peptide | Fluorescence polarization, fluorescein-MLL peptide displacement from menin | FP activity change, % at 61.4 µM | 290,000 tested, under 10 active; inconclusive = falling polarisation curve, or a change in total fluorescence; inactive = total fluorescence flat and polarisation flat or rising; no compound was filed as active; the % refers to the polarisation; negative = inhibition;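 also: % of control where 0% means no effect; inhibitors lower the polarisation; unlabelled MLL peptide was the positive control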
Starred values were filed as active, the others as inactive; u = inconclusive; x = not tested or not shown; & = joins results of further samples; [ ] = dose if it differs, or a comment. Rows were taken by chance; overall some 5.3% were active at least once.

The first two records (preview)
SMILES	ClpP mod	Sfp inh	gsp ag	CtBP-E1A blk	TRPV1 PAM	gsp antag	Menin MLL FP FL
CCOc1ccc(NC(=O)CSc2nnc(Cn3c(=O)sc4ccccc43)n2C)cc1	1.4%	15%	-21%	3	-13	2%	2.2
CCN1CCN(C(=O)/C=C/c2c(F)cccc2Cl)CC1	-2.4%	1%	22%	7	-39	10%	3.6

Main list, from the start:
SMILES	ClpP mod	Sfp inh	gsp ag	CtBP-E1A blk	TRPV1 PAM	gsp antag	Menin MLL FP FL
CCOc1ccc(NC(=O)CSc2nnc(Cn3c(=O)sc4ccccc43)n2C)cc1	1.4%	15%	-21%	3	-13	2%	2.2
CCN1CCN(C(=O)/C=C/c2c(F)cccc2Cl)CC1	-2.4%	1%	22%	7	-39	10%	3.6
C[C@@H](Oc1ccccc1)c1nnn(Cc2ccccc2)c1-c1c([C@@H](C)Oc2ccccc2)nnn1Cc1ccccc1	0.3%	10%	4%	2	u	-10%	2.5
Cc1ccc(C(=O)NNC(=O)CCOc2cccc(C)c2)cc1	1.0%	x	-3%	4	27	-7%	x
CN(C)CC#CCC(O)(c1ccccc1)C1CCCCC1 (stereo not given)	-1.7%	7%	4%	-7	-5	-13%	-0.5
COC(=O)[C@]1(Cc2ccccc2)N[C@H](CN(C)S(=O)(=O)c2ccc(-c3ccccc3)cc2)[C@@H]2C(=O)N(Cc3ccccc3)C(=O)[C@@H]21	1.4%	x	x	0	x	-7%	x
CCN(CC)CCOc1ncnc2c1oc1ccccc12	-2.3%	8%	-7%	0	-8	0%	0.8
Cc1nc(C)c(C(=O)Nc2cccc(C)c2C)o1	1.6%	-20%	3%	2	5	3%	-0.6
O=C(CN1C(=O)NC2(CCCCC2)C1=O)N1CCN(S(=O)(=O)c2cccc(F)c2)CC1	-4.1%	6%	-3%[15.4 µM]	-6	-8	5%	x
CC1(N=Cc2cc(Cl)ccc2O)COP(=O)(Nc2ccccc2)OC1 (stereo not given)	1.4%	x	4%	13	x	-7%	x
Clc1ccc(OCc2nc(-c3ccccn3)no2)c(Br)c1	0.9%	-4%	11%	-1	0	2%	-0.6
Cc1ccccc1C(=O)Nc1c2c(nn1C(C)(C)C)CS(=O)(=O)C2	-0.6%	12%	u	3	-5	10%	x
COc1ccc(C=CC(=O)c2ccc([N+](=O)[O-])cc2)cc1	x	x	u	2	x	3%	x
CC(Cl)C(=O)c1ccc2c(c1)CCN2C(=O)C1CC1 (stereo not given)	-3.0%	2%	1%	-17	7	10%	2.7
Cc1c(NC(=O)c2ccco2)cccc1-c1nc2cccnc2s1	-6.3%	u	-137%[inhibitor]	-1	18	-10%	0.1
O=C(CSc1nnc(Cc2ccccc2)o1)Nc1ccc2c(c1)OCO2	-4.0%	17%	5%	-5	-6	-2%	-0.5
COc1ccc(N2CCN(C(=O)c3cccc(S(=O)(=O)N4CCCc5ccccc54)c3)CC2)cc1	1.7%	x	-6%	x	14	-25%	x
Cc1ccc(C(=O)N/C(=C\c2ccco2)C(=O)NCCCN2CCOCC2)cc1C	-4.1%	6%	15%[15.4 µM]	17	13	8%	x
OC(CN1CCOCC1)C12CC3CC(CC(C3)C1)C2 (stereo not given)	-0.5%	17%	3%	8	2	3%	0.4
COc1ccc(C(C(=O)NC2CCCC2)N(C(=O)c2ccoc2C)c2ccc(C)c(C)c2)cc1 (stereo not given)	x	16%	15%	-3	-6	-18%	-1.0
O=C(NCc1ccccc1)C(c1ccco1)N(C(=O)c1ccccn1)c1ccc(F)cc1 (stereo not given)	x	-3%	23%[15.4 µM]	0	-3	-3%	-1.6
COc1ccc(-n2nc(C)c3sc(C)nc3c2=O)cc1	x	12%	25%[15.4 µM]	-2	16	-2%	2.2
O=C(c1ccc2c3n(nc2c1)-c1ccccc1CO3)N1CCOCC1	-14%	-2%	x	0	u	0%	-1.3
O=[N+]([O-])c1ccccc1CN1CCN(Cc2ccc3ccccc3c2)CC1	1.0%	u	-13%	x	-18	2%	0.4
O=S(=O)(c1cnc(Cl)c(Br)c1)N1CCN(c2ncccn2)CC1	0.9%	16%	-61%[inhibitor]	1	-6	7%	-0.7
SMILES	ClpP mod	Sfp inh	gsp ag	CtBP-E1A blk	TRPV1 PAM	gsp antag	Menin MLL FP FL
O=C(NC(=S)NCc1ccc(Cl)cc1)c1ccco1	-4.5%	x	-9%[15.4 µM]	-9	x	7%	x
COc1cccc(CN(C)CC2CCCN(CCc3ccccc3C)C2)c1 (stereo not given)	-2.3%	6%	9%	x	-4	-2%	-4.2
COc1cccc(NC(=O)COC(=O)c2nc(Cl)ccc2Cl)c1	-1.5%	1%	15%[15.4 µM]	-1	18	-6%	3.7
COc1cc(/C=C/C(=O)OCC(=O)N2CCc3ccccc32)cc(OC)c1OC	3.5%	x	13%	-10	x	x	x
Cc1nc(SCc2ccccc2)c2oc3ccccc3c2n1	x	u	7%	3	28	-1%	23
CCO[C@@H]1OC(C(=O)N2CCN(Cc3ccccc3)CC2)=C[C@H](c2csc3ccccc23)[C@H]1CCCO	1.0%	4%	x	2	5	u	4.2
O=C(c1ccc(Cn2c(=O)[nH]c3ccccc3c2=O)cc1)N1CCN(c2ccc(F)cc2)CC1	-9.0%	-8%	-22%	-16	0	-23%	4.2
c1ccc2c(c1)cnc1ccccc12	-2.4%&-15%	-10%	2%[15.4 µM]	0	8	7%&1%	-1.4
Cc1ccc(Cl)cc1NC(=S)NN	1.8%	2%	-12%	-2	15	4%	-1.6
Cc1ccsc1CNS(=O)(=O)c1ccc(F)cc1	0.8%	-3%	7%	6	0	1%	x
CCOC(=O)c1sc(NC(=O)CCN2CCCCCC2)c(C(=O)OCC)c1C	x	13%	-7%	2	0	-12%	0.5
O=C(NCc1ccc(F)cc1)C(c1ccco1)N(C(=O)c1csnn1)c1ccccc1 (stereo not given)	x	10%	-16%[15.4 µM]	7	-7	-5%	0.3
S=C(NCC1CCCO1)Nc1ccc(Cl)c(Cl)c1 (stereo not given)	1.6%	9%	-10%	x	-14	-16%	-1.1
CCOc1ccc(OCCCC(=O)N2CCN(S(=O)(=O)c3ccccc3C#N)CC2)cc1	-0.2%	x	7%[15.4 µM]	-3	x	-10%	x
CC(=O)OCC(=O)Nc1ccccc1C	1.3%	14%	1%	x	20	3%	0.6
Cc1nc([N+](=O)[O-])cn1CC(=O)c1ccc(Cl)cc1	-0.3%	6%	u	2	-5	4%	-5.2
COc1ccc(/C(C)=N/NC(=O)CNC(=O)Cc2ccccc2)c(OC)c1	-2.7%	2%	u	x	-6	4%	-1.4
CCC1(CC)Cc2ccccc2-c2nc(-c3ccccc3)oc(=O)c21	-4.2%	3%	21%	4	-18	3%	-0.3
Cn1c(N/N=C/c2ccccc2)nc2sc3c(c2c1=O)CCC3	-8.7%	-21%	14%	u	-3	-20%	1.1
CC1(C)CC2CC(C)(CN2S(=O)(=O)c2ccc(C(=O)Nc3cc(S(=O)(=O)N4CCOCC4)ccc3Cl)cc2)C1 (stereo not given)	-5.8%	10%	-7%	1	-4	4%	6.2
CC(C)(C)C1(C)OC(C(=O)NC2CCCCC2)C(C(=O)NC2CCCCC2)O1 (stereo not given)	-1.2%	7%	25%	13	2	8%	0.3
O=C(c1ccco1)N1CCN(c2ncnc3c2nnn3Cc2ccccc2Cl)CC1	0.0%	-19%	-27%	-9	11	-14%	3.3
O=c1[nH]c(/C(Cl)=C/c2cccc(F)c2)nc2cc(C(F)(F)F)ccc12	x	5%	12%[15.4 µM]	8	17	x	3.5
Cc1nc(-c2ccccc2)nc(Cl)c1Cl	x	3%	-22%	9	4	-5%	-3.8
CC(C)c1ccc(NC(=O)C2CCCN(S(=O)(=O)c3cnc[nH]3)C2)cc1 (stereo not given)	2.7%	8%	-44%[inhibitor]	21	7	3%	5.3
SMILES	ClpP mod	Sfp inh	gsp ag	CtBP-E1A blk	TRPV1 PAM	gsp antag	Menin MLL FP FL
CN1CCCN(C(=O)CNC(=O)Cc2ccccc2)CC1	x	10%	-1%	7	3	4%	4.7
C=CCC1(CC=C)CCCN1C(=O)c1cc(COc2ccccc2SC)on1	-1.9%	10%	-14%	11	27	-6%	x
COCCNC(=O)c1ccc(C)cc1C	x	19%	-6%[15.4 µM]	-2	21	4%	-0.2
CCOc1ccccc1OCCCC(=O)Nc1nc2ccccc2[nH]1	x	6%	-5%[15.4 µM]	1	7	8%	1.1
Cc1ccc(CNC(=O)C2CCN(C(=O)Nc3ccc(C)cc3)CC2)cc1	x	12%	-13%[15.4 µM]	-23	-1	1%	0.8
Cc1cc(Cl)ccc1OCC(=O)N[C@@H](Cc1ccccc1)c1nc2ccccc2[nH]1	-5.0%	7%	-25%	14	0	-2%	5.8
O=C(Nc1ccccc1)c1ccccc1O	u	9%	19%	0	u	-34%	1.1
CCOc1ccc(N2C(=O)c3ccc(C(=O)OCC(=O)N(CC)C4CCS(=O)(=O)C4)cc3C2=O)cc1 (stereo not given)	x	3%	8%	6	14	-1%	-9.8
COc1cc(NS(=O)(=O)c2cn(C)cn2)cc(OC)c1OC	0.3%	1%	-14%	-6	13	21%	x
CC(C)c1ccc(N(C(=O)c2snc(C(N)=O)c2N)C(C(=O)NC2CCCC2)c2ccncc2)cc1 (stereo not given)	x	19%	-5%	-3	3	-7%	x
Cc1cc(C)cc(NC(=O)NCc2ccccn2)c1	-2.3%	11%	0%	-12	-5	-2%	-4.0
C=CCOC(=O)CSCC(NC(=O)OC(C)(C)C)C(=O)OCC (stereo not given)	0.4%	5%	-10%	1	9	-5%	-0.2
Cc1ccc([C@@H]2[C@@H]3C(=O)N(C)C(=O)[C@@H]3[C@]3(C)C(=O)N(Cc4ccccc4)CC(=O)N23)o1	-4.8%	-11%	1%	-24	-5	-3%	-1.2
CCN1CCN(c2cc(C)c3cc(NC(=O)c4ccc(OC)c(OC)c4)ccc3n2)CC1	-26%&-29%	-7%	u	4	-4	3%	3.0
O=C(c1ccc(Cl)cc1)N1CCc2c([nH]c3ccccc23)C1C(F)(F)F (stereo not given)	x	5%	u	-5	3	-5%	16
CC(C(=O)Nc1ccccn1)N1C(=O)c2ccccc2S1(=O)=O (stereo not given)	-0.6%	x	-21%	-10	7	13%	x
O=C(/C=C/c1cccc([N+](=O)[O-])c1)N1CCN(c2ccccc2F)CC1	1.0%	-20%	0%	-7	-5	-5%	4.2
